D2 agonist = agonists of human D2 dopamine receptor (beta-arrestin) | P14416 | DiscoveRx PathHunter D2 beta-arrestin, luminescence, 90 min; 100% = 57 uM dopamine signal | activation, % (concentration not given with the values) | 360,000 compounds, 0.084% hits | AID 624465; in the data active = activation above about 40%; inconclusive = about 15% to 40%; inactive = below about 15%; note: the text of the record calls up to 30% inactive
Target sequence (P14416 whole entry, looked up): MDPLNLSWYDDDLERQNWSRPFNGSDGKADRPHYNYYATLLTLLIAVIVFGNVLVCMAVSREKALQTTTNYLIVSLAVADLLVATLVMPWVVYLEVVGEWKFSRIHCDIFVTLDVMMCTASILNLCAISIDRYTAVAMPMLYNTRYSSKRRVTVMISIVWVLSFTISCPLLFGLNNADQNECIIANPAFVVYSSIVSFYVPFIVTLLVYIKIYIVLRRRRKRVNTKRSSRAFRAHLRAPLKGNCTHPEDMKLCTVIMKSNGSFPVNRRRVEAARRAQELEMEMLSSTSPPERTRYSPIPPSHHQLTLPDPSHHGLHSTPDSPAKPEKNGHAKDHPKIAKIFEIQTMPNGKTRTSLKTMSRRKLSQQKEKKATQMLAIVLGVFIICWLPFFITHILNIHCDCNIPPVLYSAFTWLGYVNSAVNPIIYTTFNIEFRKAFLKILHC
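Agonist mode: compounds alone added to overnight-plated D2 PathHunter cells for 90 min at 37 C, with 57 uM final dopamine (EC100) defining full response. Beta-arrestin recruitment detected by chemiluminescent reagent, read after 1 h at ambient temperature.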
gsp antag = gsp mutant antagonism | 340,000 compounds, 0.4% hits | gsp-mutant cells, cAMP HTRF, 30 min; control for the full effect not named in the record | AID 624288 | Potency, µM (doses to about 76.9 µM), inactives show top-dose activity change, negative = inhibition, most hits filed as inhibitors; active = falling curve of any shape with a large fitted effect; inconclusive = falling curve, mostly with a smaller effect; inactive = flat or rising curve; cell line not stated here;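 note: intracellular cAMP measured with PDE inhibitor Ro 20-1724 present during compound exposure; potency is the fitted concentration of half-maximal effect; % is set by controls: 0 for no effect and ±100 for the full control effect; nearly all actives have a fitted effect of over 65% in size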
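Measurement of cellular cAMP by homogeneous time-resolved fluorescence following a 30 min compound exposure at 37C. The PDE inhibitor […] was present throughout; the assay buffer was DPBS with 0.05% BSA and 0.005% Tween 20.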
PINK1 expr mod = changes PINK1 expression; PINK1 immunofluorescence, high-content cytometry, 24 h; Potency, µM (top dose mostly 76.6 µM), without a hit: top-dose activation (PINK1 increase), most hits filed as activators; 410,000 compounds, 0.2% hits; AID 624263; active = well fitted activation curve with a large enough effect; inconclusive = small, poorly fitted or top-dose-only effect; inactive = flat fitted curve, though single readings scatter; cell line not stated here;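 note: potency is the fitted concentration of half-maximal effect; % of control where 0% means no effect; nearly all actives have a fitted effect of over 65% in size; a mitochondrial uncoupler was the plate control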
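PINK1 protein, normally rapidly degraded, was detected by immunofluorescence after 24 hour compound treatment of a stable cell line. Titration data (5 concentrations) came from laser-scanning cytometry, with CCCP-treated wells as controls.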
Menin MLL FP FL = displaces fluorescein MLL peptide from human menin; 290,000 tested, under 10 active; Fluorescence polarization, fluorescein-MLL peptide displacement from menin; AID 1766; FP activity change, % at 61.4 µM; inconclusive = falling polarisation curve, or a change in total fluorescence; inactive = total fluorescence flat and polarisation flat or rising; no compound was filed as active; the % refers to the polarisation; negative = inhibition;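 note: % of control where 0% means no effect; inhibitors lower the polarisation; unlabelled MLL peptide was the positive control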
gsp agonist = agonists of gsp mutant (McCune-Albright syndrome); gsp mutant cells, cAMP HTRF, 30 min; control for the full effect not named in the record; Potency, µM (highest dose often 76.9 µM), inactives show top-dose activation (cAMP increase), hits mostly activators; 340,000 compounds, 0.13% hits; AID 624287; active = well fitted activation curve with a large enough effect; inconclusive = small, poorly fitted or top-dose-only effect, or another doubt; inactive = no such curve, though single readings can be large or run the other way; cell line not stated here;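 note: phosphodiesterase inhibitor Ro 20-1724 added with compounds to block cAMP breakdown; potency is the fitted concentration of half-maximal effect; nearly all actives have a fitted effect of over 60% in size; about a fifth of the inactives were tested at one dose only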
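Cells in DMEM/10% FBS with G418 were pretreated with compounds in DMSO plus […] (300 uM stock) for 30 min at 37C. cAMP was measured by HTRF (cAMP-d2 plus anti-cAMP antibody-K) after 30 min at room temperature.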
Sfp PPTase inh = blocks B. subtilis Sfp PPTase activity; Q9F4F7; Biochemical Sfp PPTase activity, qHTS; Potency, µM, inactives show max response, negative = inhibition, usual class: inhibitors; 310,000 compounds, 3.5% hits; active = well fitted inhibition curve with a large enough effect; inconclusive = small, poorly fitted or top-dose-only effect, or another doubt; inactive = no such curve, though single readings can be large or run the other way;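 note: the enzyme is Sfp with the accession as filed and its product quenches rhodamine fluorescence; potency is the fitted concentration of half-maximal effect; 0% = enzyme reaction without inhibitor and -100% = no enzyme wells; top concentration of the series not given in the record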
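Buffer: 50 mM Hepes-Na pH 7.6, 10 mM MgCl2, 0.01% Nonidet P-40, 0.01% BSA. Enzyme 15 nM, pre-exposed to compound 15 min; substrates then added and fluorescence change tracked over 30 min.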
ClpP mod = qHTS Assay for Activators of ClpP; ATP-dependent Clp protease proteolytic subunit (Bacillus subtilis (strain 168)), P80244; purified B. subtilis ClpP, FRET peptide cleavage, 20 min; Potency, µM (top dose mostly 57.5 µM), for the others: at the top dose activity change, negative = active; 340,000 compounds, 1.9% hits; active = well fitted falling curve with a large enough effect; inconclusive = small, poorly fitted or top-dose-only effect; inactive = no such curve, though single readings can be large or run the other way; note: potency is the fitted concentration of half-maximal effect; the source files actives as falling curves though it sought activators and does not explain the sign; nearly all actives have a fitted effect of over 65% in size; many hits overshoot -100%
Target sequence (P80244 whole entry, looked up): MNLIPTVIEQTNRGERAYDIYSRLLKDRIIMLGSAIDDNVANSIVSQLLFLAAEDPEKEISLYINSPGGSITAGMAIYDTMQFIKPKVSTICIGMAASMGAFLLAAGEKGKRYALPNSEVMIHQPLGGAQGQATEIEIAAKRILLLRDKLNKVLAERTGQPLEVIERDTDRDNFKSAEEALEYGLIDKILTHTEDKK
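FRET quenching reversal measured ClpP activation: 10 microg/mL B. subtilis ClpP at pH 8 with the FRET-FV decapeptide, read at 430 nm after 320 nm excitation. The 20-min minus 0-min signal was scaled between DMSO/no-enzyme wells and ADEP (5.8 microM final).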
Numbers without * were called inactive; ? = inconclusive; · = no result given; & = joins results of further samples; [ ] = another dose, or the depositor's remark.

mol	D2 agonist	gsp antag	PINK1 expr mod	Menin MLL FP FL	gsp agonist	Sfp PPTase inh	ClpP mod
COc1ccc(-c2nnc(SC)n2C)cc1	-2.5	1%	1.8%[38.3 µM]	-0.1	2%	2%	-0.4%
CC(=O)Nc1nnc(SCc2ccc(F)cc2)s1	-0.4	1%	-7.3%[38.3 µM]	10	-17%	13%	-2.0%
Cc1ccc(N2CC(C(=O)Nc3ccccc3C(=O)NC3CCCCC3)CC2=O)cc1C (stereo unspecified)	-4.5	7%	-2.0%	·	1%	·	-7.4%
COc1cc(C2NC(=O)NC(O)(C(F)(F)F)C2C(C)=O)cc(OC)c1OC (stereo unspecified)	-0.6	?	0.9%	0.6	15%	17%	-2.8%
CCOc1ccc(CCNC(=O)COC(=O)c2cccc(S(=O)(=O)N3CCOCC3)c2)cc1OCC	-1.3	-13%	3.5%	·	8%[15.4 µM]	·	·
COc1cc(OC)cc(-c2cc3nc(C)c(CCC(=O)NCc4ccccc4)c(C)n3n2)c1	4.7	?	2.0%&1.2%	1.1	-10%[15.4 µM]	6%	-22%
O=C(c1ccc2c(c1)N(Cc1ccc(F)cc1)CCS2)N1CCOCC1	-4.6	-9%	-1.0%	·	0%	2%	3.3%
Cc1nnc(NC(=O)COc2ccccc2)s1	-1.8	5%	·	0.3	3%	6%	-4.9%
O=C(CCl)Nc1cccc2ncccc12	0.1	-10%	17%	5.7	-9%	16%	-3.9%
C=CC[C@@H](CC(=O)N[C@H](CO)Cc1ccccc1)C(=O)N[C@@H](COC(=O)[C@@H](CC=C)CC(=O)OC(C)(C)C)Cc1c[nH]c2ccccc12	1.9	-3%	3.9%	·	-3%	·	-1.5%
NC(=O)CC(NC(=O)c1ccccc1)c1ccc(N2CCC(Cc3ccccc3)CC2)c([N+](=O)[O-])c1 (stereo unspecified)	-0.9	-16%	1.5%	0.3	4%	-13%	1.2%
CCOC(=O)c1ccc(NC(=O)C2CC2)cc1	-0.8	2%	26%[38.3 µM]	0.7	-21%	9%	0.4%
COc1ccccc1NS(=O)(=O)c1cc(NC(=O)C(C)C)ccc1N1CCCCC1	-1.1	-8%	2.7%	-2.9	3%[15.4 µM]	40µM*	-4.0%
CC(C)CN1CCC(=O)NC1=S	-1.8	11%	0.5%	·	-35%[inhibitor]	·	·
CC(C)(CNC(=O)c1ccc(S(=O)(=O)Nc2ccc(Cl)cc2)cc1)N1CCOCC1	-2.5	-2%	-0.5%	·	-13%	·	-1.4%
Cn1c(O)c(N=Nc2ccc(F)cc2)c2ccccc21	-5.6	0%	0.8%	-0.9	?	-27%	·
CCOc1cc(/C=N/O)ccc1OCc1ccccc1F	1.4	7%	4.1%	3.5	0%	2%	-0.9%
S=c1[nH]nc(COc2ccc(Cl)cc2)n1Cc1ccccc1	-1.2	-13%	6.3%	-0.1	8%	26%	-2.7%
CC(C)(C)NC(=S)N/N=C/c1cccnc1	-0.1	10%	-1.0%	2.5	-2%[15.4 µM]	-27%	·
Cc1ccc(S(=O)(=O)NCCc2nnc3ccc(SCC(=O)Nc4nc(C)cs4)nn23)cc1	-1.4	-2%	0.9%	3.6	-24%	17%	-3.8%
O=C(O)CCN(Cc1ccccc1)S(=O)(=O)c1c(Cl)cccc1Cl	-0.8	-9%	0.3%	-2.7	-2%[15.4 µM]	?	-4.9%
CC(C)(C)c1cc(CCC(=O)NCc2ccncc2)cc(C(C)(C)C)c1O	-1.7	-5%	2.4%	·	0%	13%	1.6%
CC1=C(C(=O)Nc2cc(C)ccc2C)C(c2cccs2)NC(=S)N1 (stereo unspecified)	-1.5	-1%	3.7%[38.3 µM]	5.2	16%	0%	0.4%
Cc1ccc(S(=O)(=O)N2CCC(=O)N(C(COCc3cccc(Cl)c3)C(C)C)CC2)cc1 (stereo unspecified)	-3.0	-22%	1.5%	2.7	7%	1%	2.0%
Cc1ccc(S(=O)(=O)N2CCOCC2)cc1NC(=O)CNC(C)c1ccccc1 (stereo unspecified)	-0.3	-6%	-2.1%	·	19%	·	4.6%
CCOC(=O)C(C(=O)OCC)C(Nc1cccc(Br)c1)c1ccccc1 (stereo unspecified)	-2.7	5%	14%[38.3 µM]	-1.8	-28%	-6%	0.9%
COc1cc(/C=N/NC(=O)c2cc(-c3cccc(OC(C)C)c3)nc3ccccc23)ccc1O	2.1	-11%	11%	·	-1%[15.4 µM]	·	-3.7%
S=c1nccc(-c2cccs2)[nH]1	-0.4	-1%	-1.1%	0.4	9%[15.4 µM]	?	-0.2%
O=C(N/N=C/C(Cl)=C\c1ccccc1)c1ccco1	-1.0	-12%	1.8%	-3.9	-40%[inhibitor]	6%	·
CCOc1ccc(NC(=O)CN(C)C(=O)c2ccccc2OCc2c(C)noc2C)cc1OCC	-5.9	-3%	-0.2%	·	-11%	·	-1.8%
CCOc1nc2ccccc2nc1C	-3.1	2%	0.1%	1.2	-23%	12%	-10%
COC(=O)[C@H]1C(OC)[C@@H](OC(=O)c2cc(OC)c(OC)c(OC)c2)C[C@@H]2CN3CCc4c([nH]c5cc(OC)ccc45)[C@H]3C[C@H]21 (stereo partly specified)	·	·	3.7%	?	·	-3%	·
c1ccc(-c2ccccn2)nc1	-0.7	9%	0.1%	-2.0&-6.0	·	-10%	1.8%
Cc1c(C)n(C)c2ccc(C(=O)NCCN3CCOCC3)cc12	-5.4	0%	-1.4%	-3.9	1%	8%	-25%
COc1ccc(-c2cc(=O)oc3cc(OCC(=O)N(C)C)ccc23)cc1	2.4	?	1.9%	-6.8	-39%[inhibitor]	6%	-5.1%
Cc1ccc(S(=O)(=O)N2CCN(S(=O)(=O)N3CCCCC3)CC2)cc1C	-5.4	11%	7.2%	-3.3	3%	18%	·
O=C(CN1CCN(S(=O)(=O)c2ccccc2)CC1)NC(=O)NCc1ccco1	-1.5	-1%	1.0%	-1.0	5%[15.4 µM]	8%	·
Cc1cccc(OCC(=O)N(Cc2ccc(N(C)C)cc2)C2CCS(=O)(=O)C2)c1 (stereo unspecified)	2.5	-12%	-1.2%	-3.7	42%	1%	·
O=C(NC1CCCCC1)C(c1ccc(F)cc1)N(Cc1ccc2c(c1)OCO2)C(=O)c1cnsn1 (stereo unspecified)	-3.4	5%	21%	-0.4	0%	12%	0.6%
COC(=O)c1cc(Br)c(=O)n(-c2ccc(F)cc2)c1	-3.8	15%	1.6%	5.2	35%	25%	-0.4%
O=C(c1cccnc1)N1N=C(C2CCCCC2)CC1(O)C(F)(F)F (stereo unspecified)	-2.2	1%	0.3%	6.5	?	1%	·
Cc1ccc(NC(=O)CN(C)S(=O)(=O)c2ccc3c(c2)c(=O)n(C)c(=O)n3C)cc1	-0.5	-11%	-0.5%	·	45%	5%	-2.5%
O=C(CC[C@H]1O[C@@H](n2ccc(=O)[nH]c2=O)[C@H](O)[C@@H]1O)N[C@H](Cc1ccccc1)C(=O)NCc1ccc2c(c1)OCO2	-1.1	·	-0.2%	·	·	·	-0.1%
Cc1ccc(S(=O)(=O)Nc2ccc3c(c2)ncn3C(C)(C)C)cc1	1.2	-8%	·	?	-17%	2%	-5.4%
Cc1nc(-c2ccc(F)cc2)c(CC(=O)Nc2cc(S(=O)(=O)N3CCCCC3)ccc2C)s1	-2.7	-10%	0.7%	·	-16%[15.4 µM]	·	·
CC1=C(C(=O)OCc2ccccc2)C(c2cccc([N+](=O)[O-])c2)NC(=O)N1C (stereo unspecified)	-3.5	?	-0.4%	1.3	15%	3%	1.0%
CC1=CC(=O)C=CC1(C)C(Cl)(Cl)Cl (stereo unspecified)	2.0	4%	1.0%	-1.1	14%	0%	0.5%
CCn1nnnc1SCC(=O)c1cc(OC)ccc1OC	-2.0	-4%	1.4%[38.3 µM]	-0.2	-19%	-21%	1.5%
CCN(Cc1ccccc1)C(=O)C(=O)c1cn(CC(=O)N2CCCC2)c2ccccc12	-2.9	-17%	2.3%	·	-27%	5%	-0.8%
C[C@H](NC(=O)c1ccc2ccccc2c1)C(=O)N1CCC2(CC1)NCCc1[nH]cnc12	-1.7	-20%	0.3%	·	5%	3%	-9.8%

New compounds follow:
mol	D2 agonist	gsp antag	PINK1 expr mod	Menin MLL FP FL	gsp agonist	Sfp PPTase inh	ClpP mod
COc1cccc(CNC(=O)C2CCC(=O)N(C3CC3)C2)c1OC (stereo unspecified)	1.4	16%	0.9%	1.7	?	11%	1.0%
O=C(NCC(=O)N1CC(O)CC1C(=O)N1CCCC1C(=O)OCc1ccccc1)OCc1ccccc1 (stereo unspecified)	-6.1	-8%	5.5%	-1.1	-6%	22%	-0.5%
CC(C)NC(=O)C1CCN(C(=O)c2cc3sccc3n2Cc2ccc(F)cc2)CC1	-2.1	32µM*	-1.3%[38.3 µM]	3.2	2%	-3%	2.0%
COc1cccc(Cn2c(=O)c(C)nc3cnc(N4CCNCC4)nc32)c1	·	·	0.4%	24	·	-3%	·
Cc1ccc(OCC(=O)NCCNC(=O)c2cnccn2)cc1	-4.8	12%	1.3%	0.7	-6%[15.4 µM]	10%	·
O=C(CCNC(=O)c1ccccc1Cl)Nc1nnc(C2CC2)s1	-7.0	-11%	-0.7%	0.8	1%[15.4 µM]	20%	·
COc1ccccc1S(=O)(=O)Cc1ccc(C(=O)NCCCN2CCN(c3ccc(F)cc3)CC2)o1	-1.1	-4%	-1.1%	-0.9	5%	-6%	-2.5%
CC(C)(C)c1nnc2sc(SCC(=O)c3ccccc3)nn2c1=O	-6.4	-6%	0.7%	6.4	-32%[inhibitor]	-14%	-1.7%
O=C(NCc1ccc(F)cc1)C1CCCN(S(=O)(=O)c2ccc(Br)s2)C1 (stereo unspecified)	2.9	?	-2.2%	1.5	-6%	25%	·

Bioassay records as filed in PubChem.
